PKD1 kinase inh: inhibitors of human PKD1 kinase; Q15139; inhibition, %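 (about 10 µM by stock and volumes)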; 0.056% of 200,000 active; PKD1 kinase fluorescence polarization assay; AID 797;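 active = inhibition of 50% or more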;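 note: controls were vehicle for no effect and a reference inhibitor for full effect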
HSV augment: increases HSV replication in cells; maximum fold increase; 0.005% of 220,000 active; AID 1956; HSV replication augmentation in cells, fold increase;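 active = peak rise of 1.5-fold or more in the series; tested in PC3 cells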;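 note: first round at 10 µM; read as green reporter fluorescence; hits show the peak of a series up to 25 µM; 1 = signal of infected wells without compound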
Insulin prom inh: TRM-6 insulin promoter activity inhibition; inhibition, % at 2 µM; TRM-6 cells (human fetal islet line), insulin promoter-eGFP reporter, imaging; reporter expression induced with tamoxifen; AID 1273; 0.9% of 130,000 active;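 active = inhibition above the mean plus 3 SD, with well images judged a real hit on visual review, cut at about 60% in these data, passing the limit was not always enough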
GALR2 ag: agonists of human galanin receptor 2 (GALR2) | activation, %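 (tested at 5 µM)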 | AID 803 | GALR2-expressing cells, agonist activation read-out | 0.48% of 140,000 active;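 active = above mean plus 3 SD of all compounds, about 5% in these data, not always enough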;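 note: 0% = vehicle buffer wells and 100% = reference agonist at full effect; tested in CHO reporter cells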
Target sequence (O43603 whole entry, looked up): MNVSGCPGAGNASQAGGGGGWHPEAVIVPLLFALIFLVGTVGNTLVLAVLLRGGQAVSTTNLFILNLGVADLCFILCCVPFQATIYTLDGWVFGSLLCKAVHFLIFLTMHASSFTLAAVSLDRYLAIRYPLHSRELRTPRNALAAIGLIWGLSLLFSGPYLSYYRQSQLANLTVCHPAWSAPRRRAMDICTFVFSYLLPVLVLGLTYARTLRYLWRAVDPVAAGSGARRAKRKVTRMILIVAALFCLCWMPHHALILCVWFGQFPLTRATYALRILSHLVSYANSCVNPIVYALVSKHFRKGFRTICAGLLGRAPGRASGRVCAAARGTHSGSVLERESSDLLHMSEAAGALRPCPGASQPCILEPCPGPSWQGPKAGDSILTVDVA
RGS16-Gao: regulators of human RGS16-Galphao interaction. O15492+P09471. bead-based flow cytometry RGS16-Galphao binding, fluorescence; actives lie on both sides. binding response (% of control), % at 10 µM. 0.38% of 220,000 active. AID 1441;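 active = below 25% or above 175%, edge rows of some plates excepted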;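 note: Galphao activated by GDP with aluminum fluoride before binding; 100% = wells without compound and 0% = beads without RGS; some results beyond the cut were filed as inactive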
Target sequence (O15492 whole entry, looked up): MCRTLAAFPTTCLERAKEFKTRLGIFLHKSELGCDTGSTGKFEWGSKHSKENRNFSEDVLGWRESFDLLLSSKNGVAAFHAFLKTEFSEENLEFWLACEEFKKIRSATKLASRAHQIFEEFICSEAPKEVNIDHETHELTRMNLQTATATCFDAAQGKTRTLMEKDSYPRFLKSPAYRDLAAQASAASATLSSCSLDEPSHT
Target sequence (P09471 whole entry, looked up): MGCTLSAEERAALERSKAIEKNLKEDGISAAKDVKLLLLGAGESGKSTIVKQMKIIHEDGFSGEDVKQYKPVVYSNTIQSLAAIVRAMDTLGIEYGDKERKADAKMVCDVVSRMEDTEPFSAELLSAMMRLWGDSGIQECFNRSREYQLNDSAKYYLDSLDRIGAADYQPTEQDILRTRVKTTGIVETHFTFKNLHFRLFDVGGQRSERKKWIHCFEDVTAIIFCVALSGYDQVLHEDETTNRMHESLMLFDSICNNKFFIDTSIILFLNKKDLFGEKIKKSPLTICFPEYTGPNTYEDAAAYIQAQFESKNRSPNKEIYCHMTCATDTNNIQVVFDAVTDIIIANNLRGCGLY
Insulin prom inh cell count: second read-out of Insulin prom inh, no call of its own (marks repeat the call); normalized cell count, %; measured here: cell count, toxicity; reference of the scale not given here;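 cells exposed to compound for 48 h; stained nuclei by imaging scaled within each plate; lower means fewer cells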
HSV augment primary fold: recorded beside HSV augment, whose call it bears; fold increase; compound at 10 µM; measured here: primary screen fold increase 10 uM; tested in PC3 cells;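 GFP signal in the first replicate; 1 = infected wells without compound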
Active calls of the source: *; i = inactive; / = no result given.

Values in the order: PKD1 kinase inh | HSV augment | HSV augment primary fold | Insulin prom inh | Insulin prom inh cell count | GALR2 ag | RGS16-Gao
> Cc1ccc(-n2nc3c([n+]2[O-])CCc2c-3no[n+]2[O-])cc1
 : -1.8 | i | 0.86 | 4.3 | 119.1 | -3.3 | 101.4
> COc1cc(OC)c(C2SCCCS2)cc1OC
 : -4.0 | i | 1.01 | 0.0 | 165.7 | -1.8 | 102.0
> Cc1cccc(N2CCN(C(=O)c3cc4c(=O)[nH]c5ccccc5c4n3C)CC2)c1C
 : -2.8 | i | 0.76 | -250.0 | 67.8 | -2.6 | /
> CC(NCc1cccs1)c1ccccc1 (stereo not given)
 : 6.0 | i | 1.02 | 25.0 | 124.9 | / | 101.8
> O=C(O)COc1ccc2occ(C(=O)c3ccccc3)c2c1
 : 2.1 | i | 1.1 | -3.0 | 115.0 | -3.1 | 92.3
> CCCCC(=O)Nc1ccc(C(=O)Nc2cccnc2)cc1
 : 4.5 | i | 0.87 | 71.4 | 125.3 | -1.5 | 105.5
> CC1(C)N=C2C(=[N+]1[O-])CCC/C2=N\O
 : -18.9 | i | 1.07 | / | / | -3.8 | 93.2
> O=C(N/N=C/c1ccccc1F)c1csc2c1CCCC2
 : -0.6 | i | 0.98 | / | / | 0.2 | 98.9
> Cc1ccc(S(=O)(=O)Nc2cccc3ncccc23)cc1
 : / | i | 0.91 | / | / | / | 96.4
> Cc1cc(C(=O)CCC(=O)N2CCN(c3ccccc3F)CC2)c(C)s1
 : -4.0 | i | 1.05 | / | / | / | 101.1
> O=C(O)c1ccc(-n2cccn2)c([N+](=O)[O-])c1
 : -2.6 | i | 0.95 | -35.3 | 114.1 | / | 101.7
> CC1(C)COC2(OC1)C(=O)N(CN1CCOCC1)c1ccccc12
 : 0.8 | i | 0.93 | / | / | / | 127.7
> Cc1ccn2c(NCc3ccccc3)c(-c3cccs3)nc2c1
 : -2.5 | i | 1.01 | / | / | / | 95.1
> Cc1ccc(C)n1-c1ccc(C(=O)NN)cc1
 : -3.8 | i | 0.95 | / | / | 0.4 | 100.7
> COc1ccc(N(CC(=O)Nc2cccc(SC)c2)S(C)(=O)=O)cc1
 : -5.5 | i | 0.85 | -43.9 | 65.9 | -0.9 | 101.5
> COc1ccc(C(=O)N/C(=C\c2ccco2)C(=O)OCc2ccco2)cc1
 : / | i | 0.93 | / | / | / | 101.6
> CCOC(=O)N1CCN(CC(O)COCC2=CCC3CC2C3(C)C)CC1 (stereo not given)
 : -5.0 | i | 0.9 | -7.1 | 121.5 | 0.7 | 109.4
> O=C(O)Cc1ccc(NC(=O)c2cnccn2)cc1
 : -12.4 | i | 0.84 | 28.6 | 86.2 | / | 99.4
> Cc1ccc(C(=O)Nc2ccc(CC(=O)O)cc2)o1
 : -12.9 | i | 0.94 | -28.1 | 121.9 | 3.7 | 97.4
> Cc1cc(C)cc(-n2c(C)cc(/C=N/NC(=O)c3ccncc3)c2C)c1
 : 2.3 | i | 1.03 | / | / | / | 97.9

Additional structures
Values in the order: PKD1 kinase inh | HSV augment | HSV augment primary fold | Insulin prom inh | Insulin prom inh cell count | GALR2 ag | RGS16-Gao
> C/C(=N\N1CCN(C)CC1)c1ccc(OC(F)F)cc1
 : 0.8 | i | 1 | 75.0* | 86.4* | / | 146.2
> O=C(CS(=O)(=O)c1cn(Cc2cccc(F)c2)c2ccccc12)N1CCCCC1
 : 6.6 | i | 0.63 | 5.3 | 121.6 | 0.1 | 102.1
> COc1ccc(/C=N/Nc2ccc([N+](=O)[O-])cc2S(=O)(=O)N2CCN(C)CC2)cc1
 : 4.3 | i | 1.14 | / | / | 0.5 | 157.9
> FC(F)(F)c1nc2ccccc2n2c(-c3ccc(Cl)cc3Cl)nnc12
 : 7.3 | i | 0.85 | -32.1 | 84.4 | -2.5 | 101.6
> CCC(=O)Nc1ccc(S(=O)(=O)N2CCc3ccccc3C2)cc1
 : -10.9 | i | 0.73 | / | / | / | 113.8
> O=S(=O)(CCc1ccncc1)C1Cc2cccc3cccc1c23 (stereo not given)
 : / | i | 1.08 | / | / | / | 97.7
> Cc1ccc(/C=C/C(=O)NCc2cccs2)c(C)c1
 : 1.1 | i | 1.05 | / | / | / | 103.2
> COc1cc(/C=C(\C#N)c2nc3ccccc3[nH]2)ccc1Oc1ccc([N+](=O)[O-])cn1
 : -8.6 | i | 0.94 | 4.2 | 99.0 | -1.0 | 98.0
> CCCCSCCCNC(=O)Nc1ccc(C)c(C)c1
 : -0.2 | i | 0.93 | -14.3 | 81.0 | / | 102.6
> COC(CNC(=O)CCc1c(C)nc2c(-c3ccc(F)cc3)c(C)nn2c1C)OC
 : -5.9 | i | 0.87 | -221.4 | 150.5 | -2.1 | 115.0
> NC(=O)Cc1c[nH]c2cccc(O)c12
 : 8.3 | i | 0.81 | / | / | -0.3 | 98.0
> COc1ccc(CN(C(=O)CCC(=O)N2CCCCC2)c2nccs2)cc1OC
 : -6.2 | i | 0.84 | / | / | / | 94.8
> COc1ccc(NC(=O)c2c(C)noc2-c2snnc2C)cc1
 : / | i | 0.77 | / | / | / | 106.8
> O=C(Nc1ccccc1NS(=O)(=O)c1ccc(F)cc1)C1CCC1
 : 2.1 | i | 0.97 | / | / | / | 101.3
> COc1ccc(NS(=O)(=O)c2ccc(O)c(NC(=O)c3ccc(S(=O)(=O)N4CCCC4)cc3)c2)cc1
 : / | i | 0.98 | / | / | / | 100.6
> O=C(O)CC(C(=O)NCc1ccccc1)C1CCCO1 (stereo not given)
 : -6.2 | / | / | -4.3 | 76.6 | -0.5 | 89.1
> Cc1nc(-c2ccccc2)sc1C(=O)/C=C/c1ccc(Cl)cc1
 : -16.8 | i | 0.8 | 10.8 | 45.4 | -1.8 | 100.4
> OCCNc1ncnc2c1ncn2Cc1ccccc1
 : 4.1 | i | 0.83 | / | / | -1.0 | 103.7
> CCOC(=O)/C(O)=C(\C#N)c1nc2ccccc2[nH]1
 : -2.2 | i | 1.04 | / | / | / | 102.1
> Cc1ccc(C(=O)NC(=S)Nc2ccccc2C(F)(F)F)c(C)c1
 : 11.1 | i | 0.89 | / | / | -2.5 | /

Next part (six carried over from the part before).
Values in the order: PKD1 kinase inh | HSV augment | HSV augment primary fold | Insulin prom inh | Insulin prom inh cell count | GALR2 ag | RGS16-Gao
> COc1ccc(NS(=O)(=O)c2ccc(O)c(NC(=O)c3ccc(S(=O)(=O)N4CCCC4)cc3)c2)cc1
 : / | i | 0.98 | / | / | / | 100.6
> O=C(O)CC(C(=O)NCc1ccccc1)C1CCCO1 (stereo not given)
 : -6.2 | / | / | -4.3 | 76.6 | -0.5 | 89.1
> Cc1nc(-c2ccccc2)sc1C(=O)/C=C/c1ccc(Cl)cc1
 : -16.8 | i | 0.8 | 10.8 | 45.4 | -1.8 | 100.4
> OCCNc1ncnc2c1ncn2Cc1ccccc1
 : 4.1 | i | 0.83 | / | / | -1.0 | 103.7
> CCOC(=O)/C(O)=C(\C#N)c1nc2ccccc2[nH]1
 : -2.2 | i | 1.04 | / | / | / | 102.1
> Cc1ccc(C(=O)NC(=S)Nc2ccccc2C(F)(F)F)c(C)c1
 : 11.1 | i | 0.89 | / | / | -2.5 | /
> COc1ccc(CNS(=O)(=O)c2ccc(F)c(C(=O)Nc3ccc(OC)cc3)c2)cc1
 : 5.2 | i | 0.89 | / | / | / | 102.5
> CCOC(=O)c1sc(S(C)(=O)=O)c2c1CC(C)(C)C/C2=N/O
 : / | i | 0.92 | / | / | / | 102.3
> CCOC(=O)c1ccccc1NC(=S)N1CCN(C2CCCCC2)CC1
 : 4.0 | i | 0.85 | / | / | / | 100.9
> CC(C)CCN1CCN(Cc2cccn2-c2cccnc2)CC1CCO (stereo not given)
 : -10.6 | i | 1.07 | / | / | / | 122.8
> CCCCN1C(=O)CC(Nc2ccc(CC)cc2)C1=O (stereo not given)
 : -2.0 | i | 1.02 | -19.1 | 61.6 | -0.7 | 107.9
> Cc1cc(C)c(NC(=O)CCCN2CCN(C)CC2)c(C)c1
 : -3.3 | i | 1.01 | / | / | -1.9 | 105.7
> COc1ccc(CCNC(=O)CC(NS(=O)(=O)c2ccc(NC(C)=O)cc2)C(C)C)cc1OC (stereo not given)
 : 9.6 | i | 0.91 | / | / | -0.9 | 110.6
> COc1ccc2c(CC(=O)Nc3ccc(OC)c(S(=O)(=O)N4CCOCC4)c3)coc2c1
 : -10.9 | i | 0.9 | -6.7 | 107.8 | -1.4 | 99.2
> COC(=O)Cc1cc(OC)c(OC)cc1Cc1cc(OC)c(OC)cc1CC(=O)OC
 : -2.8 | i | 0.98 | 41.7 | 73.5 | -0.5 | 100.7
> CSc1nc2c(c(=O)[nH]1)C(c1ccccc1)C1=C(CC(C)(C)CC1=O)N2 (stereo not given)
 : -2.2 | i | 1.05 | / | / | / | 95.5
> CC(C)c1[nH]c(=O)c(C#N)c2c1COC(C)(C)C2
 : -0.4 | i | 0.9 | 10.5 | 129.2 | -1.2 | 96.2
> Brc1ccc(C=Nc2ccc(Nc3ccccc3)cc2)s1
 : -3.5 | i | 0.61 | 26.7 | 196.0 | -0.8 | 80.9
> O=C(NNC1=NCCC1)c1cccc(Br)c1
 : -2.4 | i | 0.96 | -15.4 | 168.7 | -0.8 | 103.2
> Cc1cc(SC(C)C(=O)NCC(=O)Nc2ccc(F)c(F)c2F)nc2ccccc12 (stereo not given)
 : 0.3 | i | 0.91 | / | / | -1.2 | 102.3
> CCOC(=O)Cn1c(=O)oc2cc(S(=O)(=O)Nc3cc(Cl)ccc3OC)ccc21
 : -4.4 | i | 0.93 | / | / | -1.6 | 101.1
> O=C1CCCN1CCC1CCN(C2CC(=O)N(Cc3ccc(N4CCCC4=O)cc3)C2=O)CC1 (stereo not given)
 : 3.3 | i | 1.02 | -54.3 | 100.2 | -3.4 | 100.6
> Cc1ccc(CN=c2c([N+](=O)[O-])nn(-c3cccc(C)c3)n2O)cc1
 : -7.1 | i | 0.9 | / | / | / | 101.5
> COc1ccc(C2CN=NC23CCc2ccccc2C3=O)cc1 (stereo not given)
 : / | i | 0.77 | / | / | / | 103.4
> CCOC(=O)CN1C(=O)SC(Nc2ccc(C)cc2)C1=O (stereo not given)
 : -13.8 | i | 0.93 | / | / | / | 103.9
> CCOC(=O)C(=Cc1ccccc1OC)C(=O)OCC
 : -2.8 | i | 0.78 | -66.7 | 72.8 | / | 105.6

Other records.
Values in the order: PKD1 kinase inh | HSV augment | HSV augment primary fold | Insulin prom inh | Insulin prom inh cell count | GALR2 ag | RGS16-Gao
> COc1ccc(OC)c(NC(=O)COC(=O)c2ccc(S(=O)(=O)N3CCOCC3)cc2)c1
 : 5.7 | i | 0.97 | 28.6 | 123.0 | -0.8 | 102.1
> CSCSC1=C(C#N)C(c2ccc(Cl)cc2)C(C(C)=O)=C(C)N1 (stereo not given)
 : -10.1 | i | 1.03 | -11.7 | 161.9 | -0.9 | 94.5
> Cc1c(C(=O)Nc2ccc(F)cc2)cn2c(nc3ccccc32)c1C#N
 : / | i | 0.92 | / | / | / | 95.8
> N#Cc1c2c(c[nH]c1=O)CCN2Cc1ccccc1
 : -2.6 | i | 1 | -334.3 | 45.4 | -0.5 | 101.8
> O=C(NCCc1ccc(Cl)cc1)c1n[nH]c2ccccc12
 : -1.7 | i | 1.01 | / | / | / | 99.0
> CC(NC(=O)c1ccc([N+](=O)[O-])cc1[N+](=O)[O-])c1ccc(-c2ccccc2)cc1 (stereo not given)
 : -1.7 | i | 0.92 | 33.3 | 133.1 | -1.3 | 106.4
> CC1=CC(C)(C)Nc2ccc(OS(=O)(=O)c3ccc(C)cc3)cc21
 : -3.0 | i | 1.05 | -10.0 | 67.4 | -1.4 | 102.2
> COc1ccc(CCNS(=O)(=O)c2ccc(S(=O)(=O)N3CCCC3)cc2)cc1OC
 : -2.2 | i | 0.92 | -100.0 | 84.7 | -0.7 | 94.6
> COC(=O)c1cccc([N+](=O)[O-])c1CS(=O)(=O)c1ccc(C)cc1
 : 0.6 | i | 1.01 | / | / | / | 99.2
> CCn1c(SCc2ccccc2)nnc1-c1ccc(S(=O)(=O)N2CCCCC2)cc1
 : 2.8 | i | 1.02 | / | / | -0.1 | 101.1
> S=c1[nH]nc(-c2ccncc2)n1Cc1ccco1
 : -0.4 | i | 0.73 | -5.0 | 97.8 | -1.4 | 195.4
> COc1ccc(S(=O)(=O)N2CCCCC2)cc1NC(=O)c1ccc2ccccc2n1
 : -0.3 | i | 0.97 | 13.8 | 109.2 | 0.1 | 113.2
> COC(=O)c1sc2nc3c(cc2c1N)C(=O)CC(C)(C)C3
 : -14.5 | i | 0.91 | 33.3 | 90.4 | -0.4 | 100.9
